miR-21 FLuc – raises the signal of a miR-21 reporter. HeLa miR-21 FLuc reporter, luciferase, 48 h. Potency, µM (doses to about 38.3 µM), for the others: top-dose reporter change, positive = more light. 340,000 tested, under 10 active; active = well fitted rising curve with a large enough effect; inconclusive = small, poorly fitted or top-dose-only effect; inactive = no such curve, though single readings can be large or run the other way;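 further: % of control where 0% means no effect; miR-21 action dims this reporter so a rising signal means less miR-21 action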
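Using DMEM plus 10% FBS, HeLa miR-21-FLuc cells are incubated with test compounds (final up to about 40uM) for 48 hours; firefly luciferase signal is then imaged following reagent-mediated lysis.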
Rango complex inh – prevents formation of the Rango-importin beta complex | actives 0.031% (n = 340,000) | Rango CFP/YFP FRET sensor + importin beta, 45 min | AID 540263 | Potency, µM (top dose mostly 92.2 µM), without a hit: top-dose inhibition of complex formation; active = rising FRET ratio curve, often small or poorly fitted; inconclusive = mostly compound fluorescence or quenching in the first reads; inactive = flat curves in all reads;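 further: potency means the concentration at half of the fitted maximal effect; 0% = DMSO wells and 100% = buffer wells lacking importin beta; nearly all actives have a fitted effect of over 15% in size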
Target sequence (Q14974 whole entry, looked up): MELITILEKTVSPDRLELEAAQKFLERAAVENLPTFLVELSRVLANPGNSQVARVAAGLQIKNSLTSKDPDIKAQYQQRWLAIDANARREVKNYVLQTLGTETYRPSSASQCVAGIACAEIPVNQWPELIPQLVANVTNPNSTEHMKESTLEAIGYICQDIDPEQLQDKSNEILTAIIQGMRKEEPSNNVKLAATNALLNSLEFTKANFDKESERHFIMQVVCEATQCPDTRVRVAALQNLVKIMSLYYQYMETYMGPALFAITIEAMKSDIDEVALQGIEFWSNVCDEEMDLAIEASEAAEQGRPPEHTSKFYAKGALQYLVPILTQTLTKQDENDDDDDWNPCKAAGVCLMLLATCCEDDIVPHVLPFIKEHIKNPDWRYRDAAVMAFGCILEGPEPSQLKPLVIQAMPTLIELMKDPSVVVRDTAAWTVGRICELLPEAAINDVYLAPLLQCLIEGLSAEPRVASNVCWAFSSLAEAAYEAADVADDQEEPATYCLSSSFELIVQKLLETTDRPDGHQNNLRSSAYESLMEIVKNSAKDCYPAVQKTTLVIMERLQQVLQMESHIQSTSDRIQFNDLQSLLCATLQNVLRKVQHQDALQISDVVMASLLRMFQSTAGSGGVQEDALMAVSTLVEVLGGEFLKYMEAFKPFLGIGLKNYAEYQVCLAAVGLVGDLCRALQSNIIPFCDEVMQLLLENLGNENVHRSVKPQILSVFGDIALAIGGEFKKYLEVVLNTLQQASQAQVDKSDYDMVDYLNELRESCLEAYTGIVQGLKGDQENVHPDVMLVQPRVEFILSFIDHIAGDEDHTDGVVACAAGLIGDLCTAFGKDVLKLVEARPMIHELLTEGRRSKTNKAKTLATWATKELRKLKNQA
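FRET biosensor Rango (snurportin 1 IBB between N-terminal EYFP and C-terminal Cerulean), 50 nM in PBS/1 mM DTT/0.02% Tween-20/0.1% BSA, preincubated 5 min RT with compound; 0.125 microM importin beta added, 45 min RT, CFP/YFP FRET ratio read.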
Rango release inh – prevents RanGTP from dissociating the Rango-importin beta complex. O95149+P62826. Biochemical FRET Rango-importin beta, RanGTP-induced dissociation. Potency, µM (doses to about 46.1 µM), inactives show at the top dose activity change, negative = inhibition. actives 0.071% (n = 340,000). AID 540253; active means falling FRET ratio curve, often poorly fitted, with flat reads before Ran was added; inconclusive means other falling curves, or compound fluorescence or quenching; inactive means flat or rising ratio curve;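 further: potency means the concentration at half of the fitted maximal effect; % of control where 0% means no effect; nearly all actives have a fitted effect of over 45% in size; -100% = wells without RanGTP and RCC1; the record marks most hits as doubtful in a second field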
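Rango FRET biosensor (snurportin-1 IBB flanked by N-terminal EYFP and C-terminal CFP10) at 0.1 uM, with 0.25 uM importin beta in PBS, 1mM DTT, 0.02% Tween-20, 0.1% BSA. 0.6 uM Ran, 2mM GTP and 0.2 uM RCC1 were then added for 45 min at room temperature. Inhibition read as loss of FRET rise.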
GLA inh pH 4.5 – alpha-galactosidase A (human) inhibition, pH 4.5; P06280; 230,000 tested, under 10 active; activity change, negative = inhibition, % at 105 µM; AID 1467; purified enzyme, 4-MU-alpha-Gal fluorescence, pH 4.5; inconclusive = small, poorly fitted or top-dose-only inhibition, or a rising curve; inactive = flat fitted curve, though single readings scatter; no compound was filed as active;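 further: 0% = full activity with enzyme and -100% = basal without enzyme; dose as in the result columns while the protocol names 77 µM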
Active calls of the source: *; u = inconclusive; x = no result given.

cpd	molecule	miR-21 FLuc	Rango complex inh
1	CC(NC(=O)CCCc1c[nH]c2ccccc12)c1ccc(F)cc1 (configuration not stated)	2%	4.5%
2	COc1ccc(CSc2nnc(C)n2N)cc1	-4%	-1.2%
3	CCOc1ccc(/C=N/NC(=O)CSc2ccccn2)cc1O	0%	0.1%
4	Cc1ccc(-n2nc(C)c(/C=N/n3c(C)n[nH]c3=S)c2Cl)cc1	-57%	-4.4%
5	CC1(C)Cc2c(sc(/N=C/N3CCCC3)c2C#N)C(C)(C)N1	-16%	3.4%
6	CC(C)(C)NC(=O)c1ccc2c(c1)N(CC(=O)N1CCCC1)C(=O)C(C)(C)O2	-1%	2.3%
7	COc1ccc(NC(=O)C2CCCN(c3nc(C)cc(C)n3)C2)cc1 (configuration not stated)	0%	1.0%
8	CCCCCCn1c(N2CCN(c3ccccc3)CC2)nc2c1c(=O)[nH]c(=O)n2C	-2%	2.6%
9	CN(C1CCS(=O)(=O)C1)S(=O)(=O)c1ccccc1[N+](=O)[O-] (configuration not stated)	-8%	1.2%
10	CCC(C)NS(=O)(=O)c1ccc(OCC(=O)NCc2ccccn2)cc1 (configuration not stated)	-2%	-0.7%

cpd	Rango release inh	GLA inh pH 4.5
1	18%	x
2	16%	10
3	2%	0
4	-3%	11
5	0%	0
6	16%	x
7	0%	8
8	31%	-5
9	3%	-2
10	-5%	2

Quoted at random: four entries already listed, in no set order.
cpd	molecule	miR-21 FLuc	Rango complex inh
8	CCCCCCn1c(N2CCN(c3ccccc3)CC2)nc2c1c(=O)[nH]c(=O)n2C	-2%	2.6%
9	CN(C1CCS(=O)(=O)C1)S(=O)(=O)c1ccccc1[N+](=O)[O-] (configuration not stated)	-8%	1.2%
1	CC(NC(=O)CCCc1c[nH]c2ccccc12)c1ccc(F)cc1 (configuration not stated)	2%	4.5%
10	CCC(C)NS(=O)(=O)c1ccc(OCC(=O)NCc2ccccn2)cc1 (configuration not stated)	-2%	-0.7%

cpd	Rango release inh	GLA inh pH 4.5
8	31%	-5
9	3%	-2
1	18%	x
10	-5%	2

(continued)
cpd	molecule	miR-21 FLuc	Rango complex inh
11	Cc1cccc(N2CCN(C(=O)C3CCN(c4ncnc5c4nc4n5CCCCC4)CC3)CC2)c1C	u	-2.2%
12	COc1ccc(CNS(=O)(=O)c2cc(-c3cc(C)no3)ccc2C(C)C)cc1	28%	1.0%
13	CCCNC(=O)C1CC(c2ccccc2[N+](=O)[O-])=NO1 (configuration not stated)	x	-0.1%
14	O=C(COc1ccc2ccccc2c1)NNC(=O)Cc1ccccc1	-4%	3.2%
15	Cc1ncc(NS(=O)(=O)c2ccc(N)cc2)nc1C	x	1.3%
16	CC(=O)Nc1ccc(-c2csc(NC(=O)Nc3ccccc3)n2)cc1	u	3.3%
17	Cc1cccc(NC2(C(F)(F)F)N=C3SCCN3C2=O)n1 (configuration not stated)	3%	-1.3%
18	Cc1ccc(NC(=O)/C(CN(C)C)=N\O)cc1	-25%	2.4%
19	CCCN(CC(=O)Nc1ccccc1C)C(=O)c1cc(=O)[nH]c2ccccc12	0%	1.4%
20	COc1cc2c(cc1OC)CN(C(=O)CCN1C(=O)C3CCCCC3C1=O)CC2 (configuration not stated)	0%	2.9%

cpd	Rango release inh	GLA inh pH 4.5
11	-13%	x
12	7%	x
13	13%	x
14	-8%	-2
15	3%	x
16	13%	-8
17	-1%	11
18	1%	-2
19	-13%	3
20	-4%	5

More records follow:
cpd	molecule	miR-21 FLuc	Rango complex inh
21	COc1ccc(C[C@H]2CN3C(=NC[C@@H]3Cc3ccccc3)N2CCNC(=O)c2ccc(C)c(Br)c2)cc1	16%	-1.6%
22	O=C1C(C23CC4CC(CC(C4)C2)C3)C(=O)N(c2ccccc2)N1c1ccccc1	3%	0.5%
23	O=C(NCc1ccco1)c1ccc(COc2ccccc2[N+](=O)[O-])o1	-7%	0.7%
24	CCc1ccc(N=Nc2ccc(O)c3[nH]cnc23)cc1	x	2.8%
25	O=C(Nc1nccs1)c1ccccc1[N+](=O)[O-]	-6%	5.3%
26	CCOc1ccc(OCC)c(NC(=O)C2CCCN(S(=O)(=O)c3cnc[nH]3)C2)c1 (configuration not stated)	-13%	0.3%
27	COCCn1nnnc1C(c1ccccn1)N1CCN(c2cc(C)ccc2C)CC1 (configuration not stated)	0%	-5.0%
28	COC(=O)Cn1cc(/C=N/NC(=O)COc2cccc3cccnc23)c2ccccc21	-4%	1.0%
29	Cc1cc(NC(=O)Cc2cccs2)no1	-3%	-6.2%
30	O=C(C1CCN(S(=O)(=O)c2ccccc2)CC1)N(CCc1ccccc1)Cc1ccco1	13%	-1.4%

cpd	Rango release inh	GLA inh pH 4.5
21	-1%	-9
22	31%	2
23	-7%	x
24	0%	x
25	-2%	-1
26	-9%	-21
27	20%	-2
28	-13%	-3
29	-4%	4
30	-5%	2

The closing two compounds of the part before open the next one:
cpd	molecule	miR-21 FLuc	Rango complex inh
29	Cc1cc(NC(=O)Cc2cccs2)no1	-3%	-6.2%
30	O=C(C1CCN(S(=O)(=O)c2ccccc2)CC1)N(CCc1ccccc1)Cc1ccco1	13%	-1.4%
31	O=C1CCC(=O)N1CCOP1(=O)COc2ccccc2OC1	1%	-1.4%
32	O=C(Nc1cccc([N+](=O)[O-])c1)c1ccn[nH]1	-44%	-3.9%
33	CCCCC(CC)CNC(=O)CN1C(=O)NC2(CCc3ccccc32)C1=O (configuration not stated)	10%	-3.4%
34	COc1cc(C(=O)NCCNC(=O)c2cnccn2)cc(OC)c1OC	0%	2.4%
35	CC(C)c1ccc(N2C(=O)CC(Sc3nc4ccccc4o3)C2=O)cc1 (configuration not stated)	24%	0.6%
36	CC(Oc1ccc2c3c(c(=O)oc2c1)CCC3)C(=O)NCCCn1ccnc1 (configuration not stated)	-1%	-2.6%
37	O=c1cc(-c2ccccc2Cl)oc2c(NS(=O)(=O)c3ccccc3OC(F)(F)F)ccc(O)c12	17%	0.3%
38	COc1cccc(CC(=O)Nc2nccs2)c1	-5%	2.3%
39	Cc1ccc(OCC(=O)Nc2sc3c(c2C#N)CCC3)cc1	-56%	2.4%
40	COc1ccc(Cl)cc1N(C(C)C(=O)NC1CCCC1)S(C)(=O)=O (configuration not stated)	-2%	0.6%

cpd	Rango release inh	GLA inh pH 4.5
29	-4%	4
30	-5%	2
31	1%	-3
32	-11%	-4
33	15%	x
34	0%	x
35	0%	-3
36	-8%	x
37	-1%	-1
38	3%	-1
39	-5%	5
40	19%	2

(more compounds)
cpd	molecule	miR-21 FLuc	Rango complex inh
41	CC(=O)Nc1ccc(NC(=O)CN(c2ccc(C(C)C)cc2)S(=O)(=O)c2ccccc2)cc1	2%	0.9%
42	COc1cccc(/C=N/NC(=O)c2ccc(-c3ccccc3)cc2)c1O	u	-1.0%
43	Cc1cc(C(=O)NCc2ccco2)no1	-9%	u
44	CCCCN1CC[C@H]2C=CC[C@@H](C(=O)NCc3ccc(OC)cc3)[C@H]2C1=O	x	-0.2%
45	C=CCN(C(=O)CNC(=O)c1ccco1)C(C(=O)NC1CCCCC1)c1ccccc1 (configuration not stated)	-5%	-8.9%
46	Cc1ccc(N2C(=O)N3[C@H](c4cccc(C)c4)[C@@H]4C(=O)N(Cc5ccccc5)C(=O)[C@@H]4[C@]3(C)C2=O)cc1	x	2.5%
47	COc1ccc(NC(=S)N2CCN(CCN=CC3=C(O)CC(c4ccccc4)CC3=O)CC2)cc1 (configuration not stated)	-1%	-4.6%
48	Cc1ccc(C2(C)NC(=O)N(CC(=O)NCc3ccccc3Cl)C2=O)cc1 (configuration not stated)	-5%	-3.1%
49	Nc1ccc(C#Cc2c(-c3ccsc3)oc3ccc(N4CCOCC4)cc23)cc1	x	-0.3%
50	O=C(NC1CCCCC1)c1cccc(N2C(=O)CCC2=O)c1	x	-0.1%

cpd	Rango release inh	GLA inh pH 4.5
41	-6%	-4
42	-7%	0
43	-1%	10
44	0%	x
45	0%	2
46	7%	x
47	62%	-5
48	-4%	x
49	18%	x
50	-1%	x

Remaining list, next part:
cpd	molecule	miR-21 FLuc	Rango complex inh
51	Cn1nnc(NC(=O)c2cccc([N+](=O)[O-])c2)n1	0%	-1.5%
52	Cc1cc(C)n(CCCC(=O)O)n1	0%	0.3%
53	COC(=O)c1ccc(C(=O)OC)c(NC(=O)CN2CCN(c3ccccc3OC)CC2)c1	-1%	0.4%
54	Brc1ccc(OCCOCCOc2cccc3cccnc23)cc1	x	0.8%
55	O=C(Cc1c(Cl)cccc1Cl)Nc1ccncc1Cl	0%	4.7%
56	Cc1nn(CCCC(=O)NCc2ccccc2Cl)c(=O)c2nccn12	1%	0.2%
57	COCCNC(=O)c1ccc(NS(=O)(=O)c2ccc3[nH]c(=O)[nH]c3c2)cc1	-2%	-1.4%
58	COC(=O)[C@]1(Cc2ccccc2)N[C@H](CN(C)S(=O)(=O)c2ccc(OC)cc2)[C@@H]2C(=O)N(C)C(=O)[C@@H]21	x	1.8%
59	Nc1cccc(CCc2nc3cc4ccccc4cc3[nH]2)c1	-26%	-0.8%
60	CC1=C(C(=O)OCC(Br)(Br)Br)C(c2ccc(Br)cc2)NC(=O)N1CCCC(=O)O (configuration not stated)	-28%	x

cpd	Rango release inh	GLA inh pH 4.5
51	-10%	-7
52	6%	-9
53	1%	-10
54	-7%	x
55	-1%	x
56	10%	x
57	11%	x
58	-5%	x
59	2%	-7
60	x	-1

The last six compounds of the section before are carried over, then new ones follow.
cpd	molecule	miR-21 FLuc	Rango complex inh
55	O=C(Cc1c(Cl)cccc1Cl)Nc1ccncc1Cl	0%	4.7%
56	Cc1nn(CCCC(=O)NCc2ccccc2Cl)c(=O)c2nccn12	1%	0.2%
57	COCCNC(=O)c1ccc(NS(=O)(=O)c2ccc3[nH]c(=O)[nH]c3c2)cc1	-2%	-1.4%
58	COC(=O)[C@]1(Cc2ccccc2)N[C@H](CN(C)S(=O)(=O)c2ccc(OC)cc2)[C@@H]2C(=O)N(C)C(=O)[C@@H]21	x	1.8%
59	Nc1cccc(CCc2nc3cc4ccccc4cc3[nH]2)c1	-26%	-0.8%
60	CC1=C(C(=O)OCC(Br)(Br)Br)C(c2ccc(Br)cc2)NC(=O)N1CCCC(=O)O (configuration not stated)	-28%	x
61	CC(=O)n1cc(N(C(=O)CCl)c2ccc(Cl)cc2)c2ccccc21	u	-0.4%
62	CC(=O)Cc1nsc(Nc2ccc(F)cc2)n1	-31%	-1.8%
63	CCc1nnc(SCC(=O)Nc2nccs2)n1CC	1%	-0.2%
64	CCNC(=O)NC(=O)CSc1cccc(C(F)(F)F)c1	-16%	0.8%
65	COc1ccc2cc(Br)ccc2c1CC(=O)N1CCCC1	-6%	0.2%
66	CC(=O)Nc1cc2c(nc1C)nc(C)n2Cc1ccc(Br)cc1	-4%	-0.9%
67	CCN1CCN(c2ccc(NC(=O)COc3ccc([N+](=O)[O-])cc3)cc2)CC1	2%	u
68	CC(C)(C)c1nnc(NC(=O)C2CCN(c3ncccn3)CC2)s1	-5%	1.4%
69	CC(C)Cn1c(SCC(=O)NC(=O)Nc2ccc3c(c2)OCCO3)nc2ccccc2c1=O	-13%	-1.6%
70	CCc1sc(NC(=O)COC)nc1-c1ccccc1	-3%	-5.7%
71	CSc1ccc(C2c3[nH]c4ccccc4c3CCN2C(=O)c2cc(C)n(C)n2)cc1 (configuration not stated)	-28%	x
72	C=CCn1c(SCC(=O)NC23CC4CC(CC(C4)C2)C3)nc2cc(C(=O)O)ccc2c1=O	1%	0.8%

cpd	Rango release inh	GLA inh pH 4.5
55	-1%	x
56	10%	x
57	11%	x
58	-5%	x
59	2%	-7
60	x	-1
61	-2%	-8
62	2%	15
63	-7%	x
64	17%	3
65	9%	x
66	-1%	-2
67	7%	x
68	-14%	3
69	1%	-1
70	23%	-3
71	x	-2
72	1%	-1

Not all compounds are listed; the hit share may differ from the screen's.
